Tg IFNy HTS: inhibitors of Toxoplasma gondii growth with IFN-gamma; Toxoplasma gondii growth in IFN-gamma-treated host cells; stronger effect = lower value; reference of the scale not given here; activity change, negative = inhibition, %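 (about 20 µM by stock and volumes)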; 69,000 compounds, 3.8% hits;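 active = below -70%; inconclusive = fit judged invalid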;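 note: host cells are HeLa cells infected with Toxoplasma gondii; parasite growth read as luciferase light; one replicate is shown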
Active calls of the source: *; ? = inconclusive; & = joins results of further samples.

SMILES	Tg IFNy HTS
Cc1ccc(S(=O)(=O)Nc2nc3ccccc3nc2Nc2ccc3nsnc3c2)cc1	-38
CC(C)NC(=O)c1cc(C2CN(C(=O)c3n[nH]c4c3CCCC4)CCO2)nc2ccccc12 (stereo not given)	15
COc1ccc2cc(C3CN(c4ncccc4F)CCO3)ccc2c1 (stereo not given)	83
O=c1[nH]nc(Sc2nc(-c3cccs3)ns2)n1-c1ccc(Cl)cc1	-20
c1ncc(-c2cc(NC3CCCC3)nc3[nH]ccc23)cn1	2
O=C(Cn1c(=O)cc(-c2nc(C3CC3)no2)c2ccccc21)Nc1ccc(F)cc1	-3
Cc1nnsc1C(=O)N1CCCC(N(C)C(=O)c2nccc3ccccc23)CC1 (stereo not given)	32
Cc1ccc(N2CC3(CCN(C(=O)Cc4ccc(F)cc4)C3)CC2=O)cc1 (stereo not given)	-113*
C[C@H]1CN([C@@H](C)CO)C(=O)c2cccc(N(C)C)c2O[C@H]1CN(C)Cc1ccncc1	13
CNC(=O)c1cc(=O)n(CC(=O)Nc2ccc(F)cc2)c2ccccc12	21
O=C(CN1C(=O)CCc2cc(Br)ccc21)Nc1ccccn1	21
CCSc1nc(CC(=O)N(C)Cc2csc(C(C)C)n2)cs1	0
c1cncc(-c2noc(C3CCCN(Cc4cc5n(n4)CCCNC5)C3)n2)c1 (stereo not given)	1
Cn1cc(CC(=O)NCc2cnn3ccccc23)c2ccccc21	42
N#C[C@@H]1[C@H](c2ccccc2)[C@@H](CO)N1C(=O)Nc1cccc(F)c1	5
COc1ccccc1-c1ccc2c(c1)[C@H]1[C@H](CCN1S(=O)(=O)c1ccc(C)cc1)[C@@H](CO)N2	-63
Cc1ccc(CN2C[C@H]3OCCN(CCN4CCCC4)[C@H]3C2)s1	-5
c1ccc(N2CCN(N=C3c4ccccc4-c4ccccc43)CC2)nc1	-103*
CNc1nc(C)c(C(=O)N2CCN(Cc3ccc(C)cc3)C(=O)C2C)s1 (stereo not given)	-15
CC(C)N(C)Cc1ncn2c1CN(C(=O)C1CCCO1)CCC2 (stereo not given)	7
Cc1ccc(N2CC[C@@H](N(C)C)[C@H]2Cc2ccccc2)nn1	0
CCC(NC(=O)CCn1c(C)cc2ccccc21)c1cccnc1 (stereo not given)	0
Cn1ncc(C(=O)Sc2ccc(Cl)cc2)c1-n1cccc1	-94*
O=C(NCCCc1ccco1)c1c(O)cccc1O	205

Copied from the results shown (18 entries):
SMILES	Tg IFNy HTS
Cc1ccc(S(=O)(=O)Nc2nc3ccccc3nc2Nc2ccc3nsnc3c2)cc1	-38
CC(C)NC(=O)c1cc(C2CN(C(=O)c3n[nH]c4c3CCCC4)CCO2)nc2ccccc12 (stereo not given)	15
COc1ccc2cc(C3CN(c4ncccc4F)CCO3)ccc2c1 (stereo not given)	83
O=c1[nH]nc(Sc2nc(-c3cccs3)ns2)n1-c1ccc(Cl)cc1	-20
c1ncc(-c2cc(NC3CCCC3)nc3[nH]ccc23)cn1	2
O=C(Cn1c(=O)cc(-c2nc(C3CC3)no2)c2ccccc21)Nc1ccc(F)cc1	-3
Cc1nnsc1C(=O)N1CCCC(N(C)C(=O)c2nccc3ccccc23)CC1 (stereo not given)	32
Cc1ccc(N2CC3(CCN(C(=O)Cc4ccc(F)cc4)C3)CC2=O)cc1 (stereo not given)	-113*
C[C@H]1CN([C@@H](C)CO)C(=O)c2cccc(N(C)C)c2O[C@H]1CN(C)Cc1ccncc1	13
CNC(=O)c1cc(=O)n(CC(=O)Nc2ccc(F)cc2)c2ccccc12	21
O=C(CN1C(=O)CCc2cc(Br)ccc21)Nc1ccccn1	21
CCSc1nc(CC(=O)N(C)Cc2csc(C(C)C)n2)cs1	0
c1cncc(-c2noc(C3CCCN(Cc4cc5n(n4)CCCNC5)C3)n2)c1 (stereo not given)	1
Cn1cc(CC(=O)NCc2cnn3ccccc23)c2ccccc21	42
N#C[C@@H]1[C@H](c2ccccc2)[C@@H](CO)N1C(=O)Nc1cccc(F)c1	5
COc1ccccc1-c1ccc2c(c1)[C@H]1[C@H](CCN1S(=O)(=O)c1ccc(C)cc1)[C@@H](CO)N2	-63
Cc1ccc(CN2C[C@H]3OCCN(CCN4CCCC4)[C@H]3C2)s1	-5
c1ccc(N2CCN(N=C3c4ccccc4-c4ccccc43)CC2)nc1	-103*

Going on with the list:
SMILES	Tg IFNy HTS
CN1[C@@H]2CC[C@H]1CC(OC(=O)c1c[nH]c3ccccc13)C2 (stereo not given in full)	-5&23
CC(C)N1CC2(CCOCC2)c2cc(NC(=O)C3CCC3)ccc21	8
CO[C@H](CN(C)C(=O)C1CCOCC1)[C@H](C)CN(C(=O)Nc1ccc(C(F)(F)F)cc1)[C@@H](C)CO	-46
COc1ccc2c3c([nH]c2c1)[C@@H](CO)N(S(C)(=O)=O)CC31CCN(C(=O)Nc2ccccc2)CC1	35
COc1ccc2c3c(n(C)c2c1)[C@H](CO)N(S(C)(=O)=O)CC31CN(CC2CCOCC2)C1	-2
O=C(C1CCOCC1)N1CC(=O)N2[C@H](CO)[C@H](c3ccc(C#CC4CCCCC4)cc3)[C@@H]2C1	-5
CCN1c2ccc(Cl)cc2C(=O)NC12CCN(C(=O)Nc1ccccc1OC)CC2	34
Cc1c(C(=O)NCCNc2ccccn2)cnn1C	-5
Cc1ccc(CNC(=O)CN2C(=O)CCc3cc(S(=O)(=O)N4CCC(C)CC4)ccc32)o1	16
Cc1nc(CCNC(=O)CC2COCCN2)nc2c1CCC2 (stereo not given)	-28
Cc1ccc(S(=O)(=O)N(C)C[C@@H]2OCCCC[C@H](C)Oc3ccc(NC(=O)c4ccncc4)cc3C(=O)N([C@@H](C)CO)C[C@H]2C)cc1	121
NC(=O)c1sc2ccccc2c1C1CCC(CNC(=O)Cn2nnc3ccccc32)CC1 (stereo not given)	-51
CCOc1ccc(N(C2C=CS(=O)(=O)C2)S(=O)(=O)c2ccc(C)cc2)cc1 (stereo not given)	-26
CC(C)(C)[C@@H](CO)NC(=O)CCC(=O)NC1CCCC1	11
CC1=C(C(=O)NCCCN2CCCC(C)C2)C2(CCN(S(C)(=O)=O)CC2)OC1=O (stereo not given)	21
O=C(Nc1nnc(CCc2ccccc2)s1)c1ccnc(N2CCCC2)c1	-44
O=C(Nc1ccccc1CN1CCCC1)C(c1ccc(F)cc1)N1CCOCC1 (stereo not given)	32
CCc1cc(C(=O)N2C3CCC2CC(O)(Cn2ccc4ccncc42)C3)no1 (stereo not given)	37
COCCCN(Cc1ccccn1)Cc1coc2ccccc2c1=O	-25
Nc1cccc(C(=O)N(CCN2CCOCC2)Cc2ccco2)c1	6
O=C(Sc1c(Cl)cccc1Cl)N1CCOCC1	70
N#Cc1c(Br)cnn1Cc1ccc(Cl)cc1	-13
CS(=O)(=O)CC(=O)N1CCC[C@]2(C[C@@H](OCC3CC3)CO2)C1	-2
OC[C@H]1Nc2ccc(-c3cccc(F)c3)cc2[C@@H]2[C@H]1CCN2Cc1ccc(F)cc1	-29
Cc1oc(C(=O)O)cc1Cn1cncn1	-3
CC(C)Cn1c(CN2CCC(NS(C)(=O)=O)CC2)nc2ccccc21	4
CCN(CC)S(=O)(=O)N1CCn2nc(C(=O)Nc3ccccc3)cc2C1	280
O=C(c1ccc2c(c1)CCCO2)N1CCCC(c2cc(=O)[nH]cn2)C1 (stereo not given)	-2
COC1CCC(C(=O)N2C[C@@H](N)C[C@H]2C(=O)NC(C)C)CC1 (stereo not given in full)	67
O=C(c1ccc(Cl)s1)N1CCC2(CC1)Nc1cccnc1NC2=NC1CCCC1	27
CC(=O)N1CCCC2(CCC(=O)N2Cc2cccnc2)C1 (stereo not given)	-2
Cn1cnc(S(=O)(=O)N2CC[C@@H](c3ccc4c(c3)OCO4)[C@H](O)C2)c1	3
CCN1CCC2(CN(C(=O)N(C)C)CC23CCN(C(=O)Cc2cccs2)CC3)C1=O (stereo not given)	4
C[C@H]1CN([C@@H](C)CO)S(=O)(=O)c2ccc(C#Cc3ccccc3F)cc2O[C@H]1CN(C)C(=O)Cc1cccnc1	?
O=C(NCc1nnc(-c2ccccc2)o1)c1cccc2c1OCC2	2
O=C(c1ccc(Cl)cc1)n1cc2c(n1)-c1cc(Cl)ccc1SC2	33
Cc1cc(C(=O)N(C/C=C/c2ccccc2)CCO)ccc1Cl	2
CCOCc1cncc2c1CCN(C(=O)c1ccc3[nH]ccc3c1)C2	-4
CC(C)NC(=O)N1CC[C@@H]2[C@H]1c1cc(-c3ccc(F)cc3)ccc1N(C)[C@H]2CO	-65
CC(=O)Nc1cccc(C(=O)N2Cc3cnn(Cc4ccc(F)cc4)c3C2)c1	-5
COC(=O)c1ccccc1S(=O)(=O)N1CCCC1c1ccccn1 (stereo not given)	-1
CCS(=O)(=O)NC1CC2(CCN(c3ccccc3)CC2)c2ccccc21 (stereo not given)	14
O=c1c2ccccc2nc2n1-c1ccccc1CCC2	-12
CCCCSc1nnc(C)n1Cc1ccccc1	-2
COc1ccc(N)c2nc(C)c(C)nc12	184
Cc1cc(-c2onc(C)c2C(=O)Oc2ccc(Cl)cc2)no1	-30
Cc1ncccc1Oc1ncnc(N2Cc3cnn(CCO)c3C2)c1C	0
CCCSc1nc(C)cc(C)c1C(N)=O	6
COc1ccc(-c2ccc(N)nc2)c(C)c1	5
Cc1oc(-c2ccc(NC(=O)c3ccc(F)c(F)c3)cc2)nc1Cn1cccn1	-46
Cc1ccc(-n2ncc3c(NCc4cccc(Cl)c4)ncnc32)c(C)c1	-49
CCc1ncc(C(=O)N(CC)Cc2nc(-c3cccc(C)c3)no2)cn1	-8
O=C(NC1CCCC1)N1[C@@H]2CNC[C@H]1C2c1ccc(-c2cccnc2)cc1 (stereo not given in full)	-47&-7
C[C@@H]1CCCCO[C@@H](CN(C)C(=O)Nc2ccc3c(c2)OCO3)[C@H](C)CN([C@@H](C)CO)C(=O)c2cc(NS(=O)(=O)c3ccc(F)cc3)ccc2O1	129
OC[C@H]1[C@@H](c2ccc(C#CC3(O)CCCC3)cc2)[C@@H]2CN(Cc3cncnc3)CCCCN12	6
Cc1cccc(Cn2nc(C(C)(C)C)cc2C(=O)N2CCOCC2)c1	19
c1ccc2c(c1)CC1(CCCCC1)n1nnnc1-2	28
O=C1CSC(c2cccs2)N1c1ccc(F)cc1F (stereo not given)	40
Cc1noc(C)c1S(=O)(=O)Nc1cccc2c1O[C@H](CN(C)Cc1ccc(C(F)(F)F)cc1)[C@H](C)CN([C@H](C)CO)C2=O	-60
CCOc1cc2c(cc1CN1C3CCC1CC(O)(Cn1nc(C)ccc1=O)C3)OC(C)C2 (stereo not given)	13
Following part.
SMILES	Tg IFNy HTS
O=C(NCCS(=O)(=O)c1ccc(F)cc1)C1(c2ccccc2F)CCOCC1	9
O=C(C[C@@H]1CC[C@@H]2NC[C@@H](O)COC[C@H]2O1)NCCN1CCCCC1	-8
CCN(Cc1nc(C(C)C)no1)C(=O)c1ccccc1-n1cccn1	-41
COc1ccccc1N(Cc1nc(-c2cccc(Cl)c2)oc1C)S(=O)(=O)c1ccccc1	-44
COC(=O)c1ccc(C(=O)N2C[C@@H]3CCC4(NC(=O)c5cccnc5N4)[C@@H]3C2)cc1 (stereo not given in full)	-5
O=C(C1CCOCC1)N1CC(=O)N2[C@H](C1)[C@@H](c1ccc(C#CC3CCCCC3)cc1)[C@@H]2CO	-49
Cc1noc(-c2cc(=O)n(CC(=O)Nc3ccc(F)c(F)c3)c3ccccc23)n1	50
Cc1nc(C)c(C(=O)Nc2ccc3c(c2)CN(Cc2ccccc2)C3)o1	0
CCc1ccc(NC(=O)N2CCC3(CC2)NC(=O)c2cc(C)ccc2N3C)cc1	95
COc1ccc(-c2ccc(C(=O)N3CCCC(c4ccccc4)CC3)cn2)cn1 (stereo not given)	-10
O=S(=O)(C1CC1)N1CC[C@@H]2[C@H]1CCN2Cc1cccc(F)c1	-4
Cc1nc(CCN)n(-c2ccc(C(F)(F)F)cc2)n1	1
COc1ccccc1OC1CN(Cc2nccn2C)C1	-1
CN1C[C@H](NC(=O)c2cccc(-n3cccn3)c2)C[C@H]1CO	-4
CN1CC2(CCCN(C(=O)c3ccc4cccnc4c3O)C2)OC1=O (stereo not given)	0
CN(C)CCNC(=O)C1CC2(CO1)CN(Cc1ccccc1)c1ccccc12 (stereo not given)	-18
O=C1c2ccccc2C(=O)N1CCSCc1cccc(C(F)(F)F)c1	12
O=C(c1cc(C2CC2)[nH]n1)N1C[C@@H]2[C@H](C1)[C@H]1CC[C@@H]2O1	10
CCS(=O)(=O)N1CCCCN2[C@H](CO)[C@H](c3ccc(-c4ccc(C(=O)N(C)C)cc4)cc3)[C@@H]2C1	16
CCSc1nnc(NC(=O)CN2CCc3[nH]nc(C(C)C)c3C2)s1	2
COc1cc(/C=C/C(=O)O[C@H]2CC[C@]34CC35CC[C@]3(C)[C@@H](C(C)CCC=C(C)C)CC[C@@]3(C)C5CCC4C2(C)C)ccc1O (stereo not given in full)	-22
O=C1C[C@@H](c2ccccc2)C(=O)N[C@H](c2ccc3c(c2)OCO3)C/C=C\C[C@@H](c2ccc(F)cc2)N1	-8
O=C(Cc1ccccn1)N1CC(=O)N2[C@H](CO)[C@@H](c3ccc(C#CCC4CCCC4)cc3)[C@H]2C1	-27
C=CCn1cc([C@@H]2C[C@H](NC(C)=O)C[C@H](C3CCCCC3)O2)c(C)n1	-9
CN(C)C1(CNC(=O)c2ccc(C#CC(C)(C)O)o2)CCSC1 (stereo not given)	50
Cc1c(NCc2cccnc2)cccc1C(=O)NCCc1cnc[nH]1	134
Cc1cnccc1NCCNC(=O)C1CCOC1 (stereo not given)	-2
CSc1cccc(CN(C(=O)c2cccn2C)C(C)C)c1	-43
CCn1nc(C(C)C)cc1C(=O)NC(C)C1CC2CCC1C2 (stereo not given)	-4
COCc1ccc(C(=O)N2CCC3(CC2)CN(C(C)=O)c2ccccc2N3)o1	-3
Cc1ccsc1-c1nc(COc2ccc(-n3cncn3)cc2)c(C)o1	-5
O=C(NCc1ccncc1)c1ccc(Cl)c(Cl)c1	-10

Ordered by length of the SMILES (low to high): part of the list above.
SMILES	Tg IFNy HTS
CSc1cccc(CN(C(=O)c2cccn2C)C(C)C)c1	-43
Cc1c(NCc2cccnc2)cccc1C(=O)NCCc1cnc[nH]1	134
CN(C)C1(CNC(=O)c2ccc(C#CC(C)(C)O)o2)CCSC1 (stereo not given)	50

Screens from PubChem.

Not all compounds are listed (hit frequency here may not be typical).
